Mtb MbtI inh = inhibitors of Mycobacterium tuberculosis siderophore enzyme MbtI; purified MbtI enzyme, fluorescence intensity read-out; inhibition, %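 (about 17 µg/mL by stock and volumes)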; P9WFX0; hit rate 0.89% among 100,000;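 active means above 50% in both replicates, above 80% if mildly self-fluorescent; inactive means the rest, strongly fluorescent compounds included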;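 further: 0% = mean of negative and 100% = mean of positive controls; one replicate is shown; some compounds called inactive have numbers as strong as hits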
MenB inh = Mtb MenB enzyme inhibition. hit rate 0.43% among 100,000. inhibition, %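 (about 12 µg/mL by stock and volumes)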. MenB enzyme assay, absorbance read-out; some hits fall short of the stated cut. P9WNP5;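 active means mean of two replicates above 30%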;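 further: 0% = no compound and 100% = wells with inactive enzyme; the first replicate is given; strong numbers were not always called active; inactives centre near -10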
Target sequence (P9WNP5 whole entry, looked up): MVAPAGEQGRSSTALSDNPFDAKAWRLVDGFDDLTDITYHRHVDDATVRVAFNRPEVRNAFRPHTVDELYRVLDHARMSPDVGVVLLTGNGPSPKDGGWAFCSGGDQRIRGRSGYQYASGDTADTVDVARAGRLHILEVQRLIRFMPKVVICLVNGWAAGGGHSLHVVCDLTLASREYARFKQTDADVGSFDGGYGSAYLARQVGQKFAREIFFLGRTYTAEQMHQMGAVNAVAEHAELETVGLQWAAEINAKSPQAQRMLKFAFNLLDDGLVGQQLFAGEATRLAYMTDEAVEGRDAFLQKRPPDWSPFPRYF
PV pol inh = inhibitors of poliovirus RNA polymerase binding and polymerization; poliovirus polymerase elongation, fluorescence polarization; active compounds read low; P03300; hit rate 0.66% among 150,000; % elongation, % (compound at 16.7 µg/mL); in the data active means % elongation below about 90%; further: some results filed as inactive read as strong as hits
Target sequence (P03300 1749-2209 limits assumed): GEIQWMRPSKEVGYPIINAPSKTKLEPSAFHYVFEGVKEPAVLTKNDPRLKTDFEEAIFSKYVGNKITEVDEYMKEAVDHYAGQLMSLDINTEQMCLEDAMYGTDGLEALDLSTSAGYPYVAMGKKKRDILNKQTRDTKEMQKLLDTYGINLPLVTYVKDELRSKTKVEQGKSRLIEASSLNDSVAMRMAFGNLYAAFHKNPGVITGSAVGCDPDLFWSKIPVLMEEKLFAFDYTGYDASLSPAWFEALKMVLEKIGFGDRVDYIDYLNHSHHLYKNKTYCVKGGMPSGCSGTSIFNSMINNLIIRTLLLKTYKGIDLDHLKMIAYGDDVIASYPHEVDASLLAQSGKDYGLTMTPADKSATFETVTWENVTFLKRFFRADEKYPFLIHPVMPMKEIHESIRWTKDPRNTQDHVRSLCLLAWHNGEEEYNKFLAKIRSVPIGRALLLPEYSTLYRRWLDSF
PV pol inh intensity = second read-out of PV pol inh, no call of its own (marks repeat the call); % elongation; measured here: total intensity read-out; formula for this scale not given here;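 total fluorescence in place of polarization; lower means less elongation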
An asterisk follows results filed as active; nt = not tested or not shown.

Results follow in this order: PV pol inh	Mtb MbtI inh	PV pol inh intensity	MenB inh
CCCOc1ccc(CNC(=S)NCc2ccc(OC(C)C)cc2)cc1
    103.0	6.0	103.0	-61.5
CC(C)(c1ccccc1)c1ccc(OCC(=O)NC2CCCC2)cc1
    101.0	-2.6	102.0	-36.9
S=c1nc(Cc2ccccc2)[nH][nH]1
    96.0	nt	98.0	19.1
CCSc1nc(=O)[nH]c2c1CCC2
    101.0	3.5	106.0	1.3
O=C(O)CCCN1C(=O)CNC1=O
    102.0	-2.0	103.0	-25.5
COC(=O)c1ccc(CNC(=O)C2CC2C)cc1 (stereo not drawn)
    97.0	4.7	103.0	-19.4
Cc1ccc(C(=O)N/N=C/c2ccc(O)c(O)c2O)c(C)c1
    95.0	43.5	95.0	-31.7
Cc1cc(C)cc(NCCC(=O)O)c1
    101.0	6.7	100.0	nt
CC(C)n1c(SCC(=O)c2ccc3c(c2)NC(=O)CO3)nc2cc(Cl)ccc2c1=O
    104.0	-4.2	112.0	-33.6
O=C(O)CCCC(=O)N1CCN(c2nc(-c3ccccc3)c3ccccc3n2)CC1
    102.0	2.2	102.0	-11.1
COC(=O)c1nnn(CC(=O)NCc2ccc3c(c2)OCO3)c1C(=O)OC
    101.0	6.7	101.0	-14.8
COc1ccc(-n2c(C)cc(=O)cc2C)cc1
    103.0	-8.0	106.0	nt
C=CCn1c(SCC(=O)Nc2ccccc2C(=O)NC2CCCC2)nnc1-c1ccoc1C
    nt	-12.6	nt	-36.8
CCC[C@@H]1C[C@@H](C(=O)N[C@H]([C@@H](C)O)[C@H]2O[C@H](SC)[C@H](O)[C@@H](O)C2O)N(C)C1 (stereo partly drawn)
    103.0	-2.3	98.0	-2.1
NC(=O)c1nn(Cc2ccccc2)c(=O)c2ccccc12
    100.0	-0.2	91.0	-29.8
CS(=O)(=O)CCC(C(=O)n1nnc2ccccc21)N1C(=O)c2ccccc2C1=O (stereo not drawn)
    99.0	-10.5	99.0	-68.8
O=C(CCS(=O)(=O)c1cccc2nsnc12)NC1CCCC1
    98.0	18.2	100.0	-15.9
CN(C)/N=C/c1ccc(C(=O)NC(=O)C(F)(F)F)o1
    98.0	18.5	90.0	-9.9
O=C(O)CC(F)(F)CC(=O)O
    97.0	-5.5	85.0	-15.3
N/C(Cc1cccc2ccccc12)=N\OC(=O)N1CCOCC1
    99.0	-3.6	102.0	0.6
O=C(c1cccs1)N1CCCn2c(SCc3ccccc3Cl)nnc21
    103.0	15.7	93.0	-21.4
O=C(O)/C=C/C(=O)N1CCN(c2ccc(F)cc2)CC1
    102.0	1.4	104.0	1.2
O=C(c1ccccc1Cl)n1cnc2ccccc21
    101.0	0.9	103.0	5.2
O=C(Cc1ccccc1)NO
    101.0	-2.4	98.0	-12.9
Cc1c(-c2ccccc2)nc2ccccc2c1C(=O)OCC(=O)N(C)C
    105.0	30.6	101.0	10.6
COc1ccc(NC(=O)c2cn(-c3ccccc3)nc2SC)cc1
    103.0	21.1	101.0	11.4
O=C1CC(c2cccc(Oc3ccccc3)c2)NC(=O)N1CN1CCN(c2ccccc2)CC1 (stereo not drawn)
    103.0	-0.9	103.0	-8.7
CN(C)S(=O)(=O)c1ccc(S(=O)(=O)N2CCC(O)CC2)cc1
    106.0	-4.2	100.0	-74.4
CN=c1scc(-c2cc(OC)ccc2OC)n1/N=C1\CCc2ccccc21
    114.0	4.5	135.0	-31.2
C=C1Cn2c(nnc2-c2ccc(Cl)cc2)S1
    104.0	nt	105.0	0.0
Clc1ccc(-c2nc3ccccc3o2)c(Cl)c1
    102.0	-4.9	101.0	3.3
O=C(O)c1cnc(SCc2ccccc2)[nH]c1=O
    100.0	6.8	102.0	-0.9
CCOC(=O)C1=C(C)Nc2[nH]c(=O)[nH]c(=O)c2C1c1ccccc1 (stereo not drawn)
    104.0	8.8	99.0	-9.3
COc1ccc(C(CC(=O)NC2CCCC2)N2Cc3ccccc3C2=O)cc1OC (stereo not drawn)
    100.0	-35.7	105.0	-20.2
Cn1nccc1C(N)c1ccccc1 (stereo not drawn)
    100.0	-3.8	102.0	-5.8
O=C(NCC(F)(F)F)c1cc2ccccc2cc1O
    101.0	11.6	95.0	-20.5
CNc1ccccc1C(C)(C)c1cc(C)[nH]n1
    103.0	-1.5	98.0	nt
O=c1[nH]c(=S)[nH]cc1S(=O)(=O)c1ccc(Cl)cc1
    93.0	1.6	101.0	-31.8
Cc1[nH]c(=O)c(C#N)c(C)c1CCC(=O)N1CCc2ccccc21
    102.0	5.3	108.0	0.2
O=C(/C=C/c1ccco1)OCc1c(F)cccc1Cl
    99.0	50.5	104.0	-6.2
Cc1cc(NC(=O)c2ccc3c(c2)S(=O)(=O)c2ccccc2C3=O)no1
    98.0	6.8	102.0	-25.9
CCOC(=O)COc1ccc(C2CC(C)=NN2c2ccccc2)cc1 (stereo not drawn)
    104.0	8.5	104.0	-20.9
CCC(=O)NNc1ncnc2ccccc12
    102.0	11.0	104.0	0.5
N#Cc1ccc(C=Nc2ccc(N)c(Cl)c2)cc1
    98.0	-14.8	104.0	0.7
CCOC(=O)c1[nH]c(C)c(C(=O)OCC(=O)N2CCc3ccccc32)c1C
    108.0	-0.3	115.0	-3.7
CC(CS(=O)(=O)c1ccc2c(c1)NC(=O)CS2)C(=O)N1CCCCC1 (stereo not drawn)
    102.0	-14.4	103.0	-15.9
CC(C)CCn1c(=O)c2ccccc2n2c(CSC(C)c3nc4ccccc4c(=O)[nH]3)nnc12 (stereo not drawn)
    113.0	-2.2	114.0	6.5
CNS(=O)(=O)c1ccc2c(c1)C(=NO)c1cc(S(=O)(=O)NC)ccc1-2
    104.0	13.4	106.0	-21.3
Nc1c(-c2nc(-c3ccccc3)cs2)c2ccccn2c1C(=O)c1ccccc1
    96.0	2.8	96.0	-26.5
Cc1ccc(C)c(N2CCN(CCCNC(=O)Nc3ccc(F)c(Cl)c3)CC2)c1
    101.0	-3.0	101.0	-8.0
CCOC(=O)CCCN1c2ccccc2CCC1C(=O)OCC (stereo not drawn)
    102.0	nt	106.0	-6.5
COc1ccc2nc(C)cc(Cl)c2c1
    103.0	4.7	108.0	nt
CCOc1cc(-n2cnnn2)c(OCC)cc1N
    105.0	-90.5	102.0	-3.2
Cc1cc(N2CCC(C(N)=O)CC2)nc2c(C(C)C)cccc12
    104.0	-11.3	111.0	1.6
CCCc1cc(=O)n2[nH]c(NC(=O)c3ccccc3)nc2n1
    104.0	-13.3	102.0	3.7
CC(C)CNC(=O)CSc1n[nH]c(-c2ccc(Br)cc2)n1
    103.0	13.2	110.0	-18.5
CCOC(=O)N1CCN(Cc2ccc(C(=O)Nc3ccccc3)cc2)CC1
    119.0	6.3	133.0	7.2
CCCN(C(=O)[C@H](Cc1ccccc1)N1C(=O)c2ccccc2C1=O)C1CCS(=O)(=O)C1 (stereo partly drawn)
    99.0	14.3	105.0	-4.6
CCCn1ncc(C(=O)O)c1C
    101.0	nt	103.0	-2.3
Cc1[nH]nc2nc3c(c(-c4cc(C)n(C5CCCC5)c4C)c12)C(=O)CCC3
    96.0	19.3	122.0	-22.2

Part of the list above, showing only PV pol inh intensity.
| structure | PV pol inh intensity |
| --- | --- |
| COc1ccc2nc(C)cc(Cl)c2c1 | 108.0 |
| CCOc1cc(-n2cnnn2)c(OCC)cc1N | 102.0 |
| Cc1cc(N2CCC(C(N)=O)CC2)nc2c(C(C)C)cccc12 | 111.0 |
| CCCc1cc(=O)n2[nH]c(NC(=O)c3ccccc3)nc2n1 | 102.0 |
| CC(C)CNC(=O)CSc1n[nH]c(-c2ccc(Br)cc2)n1 | 110.0 |
| CCOC(=O)N1CCN(Cc2ccc(C(=O)Nc3ccccc3)cc2)CC1 | 133.0 |
| CCCN(C(=O)[C@H](Cc1ccccc1)N1C(=O)c2ccccc2C1=O)C1CCS(=O)(=O)C1 (stereo partly drawn) | 105.0 |

Next structures follow:
Results follow in this order: PV pol inh	Mtb MbtI inh	PV pol inh intensity	MenB inh
Cc1ccsc1/C=N/N1CCN(c2ccccc2)CC1
    102.0	5.2	105.0	1.5
N#Cc1ccc(C(=O)NCc2ccccc2)cc1
    104.0	-9.2	105.0	0.3
O=C(CSc1ncnc2nc[nH]c12)NCCc1ccccc1
    107.0	nt	103.0	-6.7
Cc1oc2ncn(C)c(=O)c2c1C(=O)N(C)c1ccc(F)cc1
    104.0	-21.2	102.0	-5.8
CCc1ccccc1NC(=O)CSc1nc2ncccc2[nH]1
    101.0	32.6	104.0	-6.1
CC(C(=O)N1CCCCC1)N1CCC(N2CCCCC2)CC1 (stereo not drawn)
    100.0	-3.0	101.0	-14.2
COc1ccccc1C(=O)CSC1=NCCS1
    100.0	20.5	100.0	-14.6
O=S(=O)(NCCC12CC3CC(CC(C3)C1)C2)c1cc(Cl)ccc1Cl
    103.0	nt	106.0	-21.6
O=C(CCc1cc(Cl)no1)N1CCC(c2c[nH]c3ccccc23)(c2c[nH]c3ccccc23)CC1
    100.0	-5.4	102.0	-6.6
CCCCS(=O)(=O)NCc1ccc(OC)c(OC)c1
    102.0	17.4	107.0	-7.3
CN(C(=O)CSc1ccc2c(c1)OCCO2)c1ccccc1
    100.0	2.4	97.0	-43.8
CCc1ccc(NC(=O)Nc2cc3sccc3n2C)cc1
    101.0	-0.1	102.0	-23.2
N#CCc1c(Cl)cccc1Cl
    101.0	2.4	107.0	-13.5
O=C(Nc1cccc(Cl)c1)C1=CC=CN2CCS(=O)(=O)N=C12
    103.0	7.2	97.0	-18.7
CCC(C)NC(=O)c1ccc(NC2=NC3CS(=O)(=O)CC3S2)cc1 (stereo not drawn)
    103.0	6.4	100.0	7.2
COC(CNC(=S)Nc1cccc(C)c1)OC
    102.0	-8.7	102.0	-12.3
Cc1c(-c2ccccc2)[n+](=O)c2c(n1[O-])CCC2
    103.0	14.7	100.0	0.6
CC1CCCC/C1=N\NC(=O)CC#N (stereo not drawn)
    107.0	12.5	106.0	10.1
CCOC(=O)c1c[nH]c2ccc(Cl)cc2c1=O
    103.0	-1.1	105.0	-25.8
CC(C)Cc1ccc(CC(=O)O)cc1
    80.0*	88.8	83.0*	-48.3
COC(=O)CSc1nc(C(C)(C)C)cc(C(F)(F)F)n1
    104.0	-14.9	102.0	-51.1
Cc1cc(C(=O)NCCCN2CCN(c3cc(Cl)ccc3C)CC2)n(-c2ccccc2)n1
    101.0	-2.1	104.0	-20.2
CCSc1nnc(NC(=O)/C=C/c2ccccc2)s1
    99.0	0.1	95.0	10.7
N#C/C(=C\c1cn(-c2ccccc2)nc1-c1cccs1)c1ccc(C#N)cc1
    101.0	-15.4	102.0	-32.8
CC1CCN(c2cnnc3c(Cl)cccc23)CC1
    101.0	-10.6	103.0	-21.9
COc1ccc2c(c1)C(=O)C(CC1(O)C(=O)Nc3ccccc31)CC2 (stereo not drawn)
    105.0	nt	108.0	-13.4
Cc1cc(C)n2nc(C(=O)OCC(=O)N(C3CCCCC3)C3CCCCC3)nc2n1
    106.0	2.5	105.0	-2.9
COc1ccc(C(NC(C)=O)c2ccc(OC)cc2)cc1
    102.0	-17.2	102.0	3.9
Cc1onc(-c2ccccc2)c1C(=O)NCc1ccc(F)cc1
    99.0	nt	96.0	9.7
CCOC(=O)c1cnc2c(C#N)cnn2c1N
    102.0	-9.8	100.0	-3.4
O=C(COc1ccccc1)Nc1cc(S(=O)(=O)C(F)(F)F)ccc1Cl
    105.0	-6.8	108.0	nt
O=C1CCCCC1Sc1nnc(-c2ccco2)o1 (stereo not drawn)
    106.0	5.4	110.0	-12.9
CN(C)c1cccc(C(=O)OC2CCCCC2=O)c1 (stereo not drawn)
    101.0	-32.8	94.0	11.2
Cc1ccc(C)c(NC(=O)CCN2CCc3ccccc3C2)c1
    99.0	-8.3	104.0	-0.7
Cc1ccc(-n2cc(-c3ccc4c(c3)OCO4)[nH]c2=S)cc1
    100.0	91.0	101.0	-12.7
CCOC(=O)c1[nH]c(CSc2nnc3ccccn23)c(C(=O)OCC)c1C
    102.0	-1.9	107.0	-9.4
COCc1cc(C)nc2sc3c(=O)[nH]c(-c4ccccc4O)nc3c12
    100.0	nt	102.0	4.1
CN(Cc1nc(-c2ccccc2)no1)C(=O)COc1ccccc1
    103.0	-7.8	104.0	-28.9
COc1ccc(SCC(=O)c2cn(CCC#N)c3ccccc23)cc1
    105.0	19.1	114.0	-9.7
COc1ccc(CNC(=O)COc2ncnc3ccccc23)cc1
    104.0	-13.4	105.0	-3.1
NC(=O)CCn1nc(-c2ccccc2)c2ccccc2c1=O
    105.0	-9.7	109.0	-2.4
CCN(CC)C(=O)CSc1nc2c(cc1C#N)CCCC2
    104.0	nt	113.0	2.1
CS(=O)(=O)N1CCc2cc(C(=O)OCC(=O)c3ccccc3)ccc21
    106.0	-12.8	101.0	-64.8
Cc1ccc(C)c(S(=O)(=O)n2ncc(C#N)c2N)c1
    102.0	8.6	101.0	-13.1
O=C(C1CCN(c2ncnc3c2sc2cccc(F)c23)CC1)N1CCCCCC1
    104.0	-0.7	106.0	-81.9

3 entries from above, ordered by SMILES length, largest number first:
Results follow in this order: PV pol inh	Mtb MbtI inh	PV pol inh intensity	MenB inh
O=C(C1CCN(c2ncnc3c2sc2cccc(F)c23)CC1)N1CCCCCC1
    104.0	-0.7	106.0	-81.9
O=C(COc1ccccc1)Nc1cc(S(=O)(=O)C(F)(F)F)ccc1Cl
    105.0	-6.8	108.0	nt
COc1ccc(CNC(=O)COc2ncnc3ccccc23)cc1
    104.0	-13.4	105.0	-3.1

From PubChem
